Marburg entry inh: qHTS for inhibitors of binding or entry into cells for Marburg Virus; 1.8% of 300,000 active; AID 540276, 2011; Marburg virus pseudotyped entry inhibition, cell reporter; control for the full effect not named in the record; about a third of the inactives were read at about 46 µM; Potency, µM (highest dose often 37.8 µM), without a hit: at the highest dose activity change, negative = inhibition, usual class: inhibitors; active = well fitted inhibition curve with a large enough effect; inconclusive = small, poorly fitted or top-dose-only effect, or effect the other way; inactive = flat fitted curve, though single readings scatter; tested in HEK293 cells; about a fifth of its hits are not listed in these tables; further: on the % scale 0 is the no-effect control and ±100 the full control effect; luciferase read-out
RE007 growth inh: qHTS Assay for Inhibitors of the HIV-1 protein Vpr; S. pombe RE007 Vpr strain, BacTiter-Glo ATP luminescence, 24 h; control for the full effect not named in the record; Potency, µM (titrated, usually from 92.2 µM), for the others: at the top dose activity change, negative = less growth; 0.21% of 360,000 active; active = well fitted falling curve with a large enough effect; inconclusive = small, poorly fitted or top-dose-only effect; inactive = no such curve, though single readings can be large or run the other way;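 further: on the % scale 0 is the no-effect control and ±100 the full control effect; nearly all actives have a fitted effect of over 50% in size; the assay follows cell death caused by Vpr and the record does not say whether a fall means rescue or toxicity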
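Fission yeast strain RE007, carrying one chromosomally integrated HIV-1 vpr copy, was seeded at OD 0.01 in PMG+AL medium with 23 nL pinned compound. After 24 h at 30 °C and 99% humidity, viability was read by BacTiter-Glo luminescence.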
NS1 function inh: qHTS Assay for Inhibitors of Influenza NS1 Protein Function; S. cerevisiae slowed by influenza A NS1, growth recovery by OD600; Potency, µM (series often up to 46.1 µM), for the others: at the top dose activity, positive = more growth; 0.4% of 270,000 active; AID 2326, 2010; further: actives are rising curves; nearly all actives have a fitted effect of over 50% in size
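OD600 was taken as the measure of yeast growth restored by compound in an NS1-expressing S. cerevisiae strain. Cells had been washed out of glucose medium and diluted 1:100 into galactose -URA medium, pH 6.0.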
Lassa entry inh: qHTS for Inhibitors of binding or entry into cells for Lassa Virus. Lassa virus pseudotype entry inhibition, cell reporter; control for the full effect not named in the record. Potency, µM (highest dose often 37.9 µM), for inactives: at the highest dose activity change, negative = inhibition, most hits filed as inhibitors. 1.2% of 300,000 active; active means well fitted inhibition curve with a large enough effect; inconclusive means small, poorly fitted or top-dose-only effect, or effect the other way; inactive means flat fitted curve, though single readings scatter; tested in HEK293 cells; further: on the % scale 0 is the no-effect control and ±100 the full control effect; nearly all actives have a fitted effect of over 50% in size; luciferase read-out
Cruzain inh noDet: qHTS Assay for Promiscuous and Specific Inhibitors of Cruzain (without detergent); Potency, µM, for the others: max response, negative = inhibition, most hits filed as inhibitors; 2.3% of 200,000 active; purified cruzain, Z-FR-AMC fluorescence, no detergent; Cruzipain (Trypanosoma cruzi), P25779; active means well fitted curve in the direction sought with a large enough effect; inconclusive means small, poorly fitted or top-dose-only effect, or another doubt; inactive means no such curve, though single readings can be large; an effect the other way counts as inactive or inconclusive;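 further: plate controls were enzyme without inhibitor for no effect and buffer without enzyme for full effect; nearly all actives have a fitted effect of over 40% in size; top concentration of the series not given in the record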
Target sequence (P25779 123-467 limits assumed): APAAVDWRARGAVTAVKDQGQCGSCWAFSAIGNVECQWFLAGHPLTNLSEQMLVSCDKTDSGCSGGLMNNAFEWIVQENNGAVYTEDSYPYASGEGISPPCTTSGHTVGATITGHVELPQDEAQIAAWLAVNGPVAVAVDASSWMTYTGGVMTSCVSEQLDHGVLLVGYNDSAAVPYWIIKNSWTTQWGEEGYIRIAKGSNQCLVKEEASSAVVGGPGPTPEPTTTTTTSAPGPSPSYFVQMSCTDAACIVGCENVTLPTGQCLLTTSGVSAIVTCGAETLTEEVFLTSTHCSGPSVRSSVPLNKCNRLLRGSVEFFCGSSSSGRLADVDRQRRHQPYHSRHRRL
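Purified cruzain at 1.5 nM, pre-incubated 15 min with compound at room temperature in 100 mM sodium acetate pH 5.5, 5 mM DTT, 0.00005% Triton X-100. Reaction started with 2 uM Z-FR-AMC; AMC fluorescence increase over 60 s gives rate.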
SARS PLP yeast: qHTS of Yeast-based Assay for SARS-CoV PLP; Potency, µM (top dose mostly 32.9 µM), for inactives: top-dose activity, positive = growth rescue; 0.19% of 330,000 active; S. cerevisiae expressing SARS-CoV PLpro, growth rescue; control for the full effect not named in the record; further: 0% is about no effect; nearly all actives have a fitted effect of over 55% in size; growth read by luminescence after 48 h
2A StopGo: High Throughput Screening for Foot and Mouth Disease Virus Antivirals; human cells with a luciferase reporter of 2A StopGo recoding; control for the full effect not named in the record; Potency, µM (doses to about 57.9 µM), inactives show at the highest dose signal change, negative = less light; 1.2% of 410,000 active; AID 1159524, 2015; active = well fitted falling curve with a large enough effect; inconclusive = small, poorly fitted or top-dose-only effect; inactive = no such curve, though single readings can be large or run the other way; tested in HEK293T cells; further: on the % scale 0 is the no-effect control and ±100 the full control effect; nearly all actives have a fitted effect of over 45% in size; luciferase light after 4 h
Cruzain inh Det: qHTS Assay for Promiscuous and Specific Inhibitors of Cruzain (with detergent); Cruzipain (Trypanosoma cruzi), P25779; purified cruzain, Z-FR-AMC fluorescence, 0.01% Triton; Potency, µM, for inactives: max response, negative = inhibition, usual class: inhibitors; 0.43% of 200,000 active; active means well fitted curve in the direction sought with a large enough effect; inconclusive means small, poorly fitted or top-dose-only effect, or another doubt; inactive means no such curve, though single readings can be large; an effect the other way counts as inactive or inconclusive;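 further: plate controls were neutral wells for no effect and buffer without enzyme for full effect; nearly all actives have a fitted effect of over 40% in size; top concentration of the series not given in the record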
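Purified cruzain (1.5 nM final) was preincubated with compounds for 15 min at room temperature in 100 mM sodium acetate pH 5.5, 5 mM DTT, 0.01% Triton X-100. Reaction started with 2 uM Z-FR-AMC; AMC fluorescence change over 60 s gave activity.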
Active calls of the source: *; ? = inconclusive; . = no result given; & = joins results of further samples; [ ] = remark or other dose. Unless noted, the call rests on the fitted dose curve; in most records, active means well fitted rising curve with a large enough effect; inconclusive means small, poorly fitted or top-dose-only effect; inactive means no such curve, though single readings can be large or run the other way. Potency means the concentration at half of the fitted maximal effect.

The line under a structure holds: Marburg entry inh | RE007 growth inh | NS1 function inh | Lassa entry inh | Cruzain inh noDet | SARS PLP yeast | 2A StopGo | Cruzain inh Det
CC1CC(C)CN(C(=O)c2cccc(S(=O)(=O)N3c4ccccc4CC3C)c2)C1 (configuration not stated)
    ? | -3% | . | -5% | . | -4% | -14% | .
COc1ccc(C(=O)NNC2=C(C(=O)C(F)(F)F)CCC2)cc1
    -29%[46.1 µM] | 5% | -8% | ? | . | -2% | -20% | .
Cc1cccn2c(=O)c3cc(C(=O)NCCN4CCOCC4)c(=N)n(CCN4CCOCC4)c3nc12
    ? | -7% | 3% | -1% | . | 0% | -8% | .
O=C(Cc1cccc2ccccc12)N/N=C/c1ccc(OC(=O)/C=C/c2ccco2)cc1
    -40% | 6% | 13% | ? | ? | -2% | -4% | -9.5%
O=C1NC(=O)C2(Cc3ccccc3N3CCCC32)C(=O)N1c1ccccc1 (configuration not stated)
    3% | 9% | ? | 5% | -13% | 2% | 2% | 3.5%
CCOC(=O)c1c(NC(=O)COC(=O)c2ccncc2)sc(C)c1C
    16%[46.1 µM] | -1% | . | -4% | . | 0% | -8% | .
Cc1ccc(Nc2ccc([N+](=O)[O-])cn2)cc1Cl
    -15% | -10% | -23% | -1% | . | -5% | 5% | .
Cc1ccc(CC(=O)NCc2ccc(Cl)cc2)cc1
    . | -1% | -2% | . | . | 0% | 2% | .
CC(C)(C)NC(=O)Nc1ccc(Br)cc1
    1% | 10% | 1% | 28% | . | -1% | 52%[activator] | .
CCOC(=O)C(=O)c1c(-c2ccc(C)cc2)nc2ccccn12
    . | ? | -19% | . | . | -2% | -1% | .
CCSc1ccc2cc(OC)ccc2[n+]1CC
    -23%[46.1 µM] | ? | . | -10% | . | 0% | ? | .
Cc1ccc(NC(=O)C(Cc2ccccc2)n2cccc2)c(C)c1 (configuration not stated)
    10%[46.1 µM] | . | . | . | -9% | . | -11% | -6.6%
CCOc1ccc2c(c1)c(=O)c(C(=O)c1ccc(CC)cc1)cn2CC(=O)Nc1ccccc1OC
    ? | . | . | -21%[46.1 µM] | -6% | . | -11% | -0.8%
Cc1ccc(OCC(=O)N/N=C/c2cn(Cc3ccccc3)c3ccccc23)cc1
    -38% | 5% | 16% | ? | ? | 13% | -9% | -5.2%
COc1ccc(NC2CCCN(C(=O)c3c(C)noc3C)C2)cc1 (configuration not stated)
    . | 4% | 3% | . | . | 2% | -10% | .
COc1ccc(S(=O)(=O)Nc2ccccc2SC)cc1C
    -8% | 2% | -1% | -11% | -7% | -25% | 19% | -5.9%
COc1ccc(-c2nn3c(-c4ccccc4C)nnc3c3ccccc23)cc1
    9%[46.1 µM] | . | . | ? | 16% | . | 24% | -10.0%
Cc1ccc(S(=O)(=O)N(C)c2ccc(OCC(=O)OCc3ccc(C#N)cc3)cc2)cc1
    15% | 5% | . | 10%[46.1 µM] | . | -10% | -18% | .
CC1CCCC(NC(=S)NC(=O)c2cncc(Br)c2)C1C (configuration not stated)
    6% | . | 3% | ? | 12% | ? | -22% | -4.2%
CCN1CCN(CCNC(=O)C2CCCN(Cc3nc(-c4cccc(Cl)c4)oc3C)C2)CC1 (configuration not stated)
    -1% | -18% | -7% | . | -4% | -4% | 0% | 6.5%
Cc1cc(C)c2c(C)c(C(=O)N3CCC(c4nc5ccccc5s4)CC3)oc2c1
    -15%[46.1 µM] | . | . | -6%[46.1 µM] | 13% | . | -24% | -7.0%
Cc1ccc(S(=O)(=O)n2nc(C)cc2C)cc1
    3% | 5% | 7% | 14% | -5% | 15% | 1% | 3.8%
O=C(C1CCC1)N1CCc2cc(S(=O)(=O)NCc3ccccn3)ccc21
    -20% | -18% | 3% | 3% | 5% | -7% | . | -1.7%
O=C(CCC1CCCCC1)NCCN1C2=NC[C@@H](Cc3ccccc3)N2C[C@H]1Cc1ccc(O)cc1
    . | 8% | 1% | . | . | 1% | -15% | .
N#Cc1c2n(c3c(=S)nc[nH]c13)CCCCC2
    -6% | -1% | 10% | 13% | 2% | 0% | -26% | -0.3%
COc1ccc(S(=O)(=O)Nc2ccc(C(F)(F)F)cc2)cc1OC
    14% | 0% | -3% | 16% | 6% | -2% | -98% | -12%
Cc1ccnc2nc(C(=O)Nc3nccs3)nn12
    10% | 16% | 11% | 5% | -10% | 0% | 44%[activator] | -1.7%
CC1CCCCC12NC(=O)N(CC(=O)Nc1ccccc1-c1ccccc1)C2=O (configuration not stated)
    3%[46.1 µM] | 32% | -5% | -29% | . | 0% | -10% | .
COC(=O)C1=C(C)NC(C)=C(C(=O)OC)C1c1ccccc1OCc1c(C)no[n+]1[O-]
    -28% | 1% | -10% | -1% | 20% | -2% | . | -3.3%
CCOC(=O)C(NC(C)=O)(N1CCc2ccccc2C1)C(F)(F)F (configuration not stated)
    15% | -9% | 3% | 0% | 16% | 3% | -14% | 0.9%
O=C(Cc1ccccc1F)N1CCC(c2nc3c(nnn3Cc3ccc(F)cc3)c(=O)[nH]2)CC1
    -10%[46.1 µM] | . | . | -2%[46.1 µM] | ? | . | -28% | -3.2%
Cc1ccc(N2C(=O)CSCC2=O)cc1
    9% | -2% | -3% | -8% | 1% | 9% | -16% | 6.9%
Cc1ccc(S(=O)(=O)C2(C(=O)N3CCN(C4CCCCC4)CC3)CC2)cc1
    -27% | 8% | -7% | 4% | 4% | -2% | -20% | -0.6%
O=C(Nc1ccccc1)N(Cc1ccccc1)C1=NCCS1
    18%[46.1 µM] | -1% | 5% | ? | 1% | -2% | -8% | 8.0%
CCOC(=O)c1ccccc1NC(=O)CSc1nnnn1C1CCCCC1
    ? | ? | -13% | -16% | -5% | -1% | . | -6.7%
COc1ccc(C2SCCN2S(=O)(=O)c2ccccc2)cc1OC (configuration not stated)
    -19% | 4% | -10% | -12% | -1% | 2% | ? | 2.7%
O=C(CSc1nnc(-c2ccccc2)n1C1CCCCC1)Nc1ccc(S(=O)(=O)Nc2ccccn2)cc1
    -12% | 2% | ? | -25% | 2% | 0% | 38%[activator] | -9.6%
Cc1ccc([N+](=O)[O-])cc1S(=O)(=O)Nc1ccccn1
    12%[46.1 µM] | 1% | 1% | 0%[46.1 µM] | . | 2% | 39%[activator] | .
CCn1c(C)c(C(C)=O)c(N2CCN(C(=O)c3ccco3)CC2)nc1=S
    12% | -10% | ? | -1% | -3% | 1% | . | -1.7%
COc1ccccc1NC(=O)c1cc([N+](=O)[O-])ccc1N1CCOCC1
    . | 0% | -5% | . | . | -6% | -19% | .
COc1ccc(/C=C/c2nc3ccccc3c(=O)o2)cc1
    ? | -10% | 16% | . | . | 2% | 0% | .
CCOC(=O)N1CCN(C(=O)CCC2CCCC2)CC1
    ? | -3% | 1% | -17% | . | 0% | 16% | .
C=CCn1cc(C(=O)NCCN(CC)CC)c(=O)c2cc(S(=O)(=O)N3CCCCCC3)ccc21
    . | 1% | -4% | . | . | 0% | -10% | .
O=C(COC(=O)c1cnccn1)c1ccc(Cl)c([N+](=O)[O-])c1
    -22% | 7% | 4% | 7% | . | -1% | -22% | .
Oc1ccc(NCc2ccccc2OCc2ccccc2)cc1
    ? | -15% | -8% | ? | -15%&5% | -52% | 17%&-29% | -11%&-5.2%
CC(C)n1nc(C(=O)Nc2nnc(SCc3c(Cl)cccc3Cl)s2)c2ccccc2c1=O
    -23% | -5% | 5% | 0% | 13µM* | 9% | -12% | -1.2%
COc1cc(C(=O)N2CC(C)OC(C)C2)c([N+](=O)[O-])cc1OC (configuration not stated)
    -1% | -11% | 8% | -23% | -4% | 0% | 0% | -0.9%
CCC(=O)N1C(C(=O)O)CSC1c1ccc(OC)cc1 (configuration not stated)
    . | 7% | 7% | . | 1% | -1% | -11% | -3.6%
COc1ccc2cc(C3(C)NC(=O)N(CC(=O)N4CCCCC4)C3=O)ccc2c1 (configuration not stated)
    ? | -2% | . | -8%[46.1 µM] | . | 1% | 0% | .
NC(=O)C1CCCNC1 (configuration not stated)
    . | 0% | 0% | . | . | 0% | 0% | .
CCN(c1ccccc1)S(=O)(=O)c1ccc(OC)c(NC(=O)CNCCc2ccccc2)c1
    ? | 6% | 9% | ? | . | -1% | -22% | .
Cc1ccc(NC(=O)CC(C)S(=O)(=O)c2ccc3c(c2)NC(=O)CO3)c(Cl)c1 (configuration not stated)
    ? | 7% | 12% | ? | . | -3% | -22%&-20% | .
CCOC(=O)C1CCCN(C(=O)C(CCSC)NC(=O)COc2ccccc2)C1 (configuration not stated)
    1% | 15% | . | -28% | . | 1% | -11% | .
CCOC(=O)COc1cc(N)c(Cl)cc1Cl
    7%[46.1 µM] | -7% | . | 5% | . | -1% | -1% | .
CCCn1nc2cc(C(=O)NCC34CC5CC(CC(C5)C3)C4)ccc2c1OCC
    . | 9% | 0% | . | 6% | -3% | -25% | 0.3%
CCCn1c(C)cc(C(=O)COC(=O)c2cc(S(=O)(=O)NCC(C)C)c(Cl)cc2Cl)c1C
    -15% | 5% | -3% | ? | -7% | -1% | 26% | -2.7%
c1ccc(-c2nnsc2-c2ccccc2)cc1
    . | -4% | 0% | . | . | -1% | -14% | .
COc1ccc(CCNC(=O)Cn2cc(C(F)(F)F)cc(Cl)c2=O)cc1
    ? | 3% | 15% | -6% | -6% | 1% | -6% | -0.8%
O=C1C2CCCN2C(c2ccccc2)N1c1ccccn1 (configuration not stated)
    17% | 12% | -36% | -4% | -7% | 0% | -7% | 3.4%
CC(=O)N1N=C(c2ccco2)CC1c1ccc(C)cc1 (configuration not stated)
    ? | 7% | 20% | 24% | -1% | 4% | 23% | -3.0%
COC(=O)Cn1cc(C(=O)c2ccccc2F)c2ccccc21
    ? | -7% | -49% | ? | . | -7% | 23% | .
CC(=O)N1CCN(c2ccc(S(C)(=O)=O)cc2[N+](=O)[O-])CC1
    6% | 1% | . | 4% | . | 1% | -8% | .
